DUX4 inh = blocks DUX4-driven transcriptional activation; 293T-iDUX4 ZSCAN4-Gaussia luciferase reporter, 24 h; hits give low values; activity change, negative = inhibition, % (no concentration beside the values); hit rate 0.8% among 37,000; AID 1224904;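 active = -10% or lower and over 25 points stronger than a control reporter; inconclusive = -10% or lower with a smaller gap; inactive = above -10%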;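 also: 0% = median of neutral control wells and -100% = median of positive control wells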
DUX4 inh difference = further read-out of DUX4 inh, marked with its call; Gaussia minus Italica difference, %; measured here: selective DUX4 reporter inhibition;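 worked out from the two reporters; negative = selective loss of the DUX4 reporter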
DUX4 inh control = recorded beside DUX4 inh, whose call it bears; activity change, negative = inhibition, %; measured here: Italica tet-on control reporter;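 0 = neutral control and -100 = positive control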
* marks the source's active call; other numbers are inactive results; ? = inconclusive; / = not tested or not shown.

SMILES	DUX4 inh	DUX4 inh difference	DUX4 inh control
COc1cccc(CNC(=O)C[C@@H]2CC[C@H]3[C@H](COc4ccc(NC(C)=O)cc4C(=O)N3C)O2)c1	-3	3	-5.9
CC(C)[C@H](C)NC(=O)N(C)C[C@H]1OCc2ccccc2-c2c(n(C)c3ccccc23)C(=O)N([C@@H](C)CO)C[C@@H]1C	?	/	/
CCCNC(=O)N1C[C@H]2[C@@H](c3ccccc31)[C@H](CO)N2C(=O)C1CCOCC1	-3	-2	-0.8
CN1C(=O)c2cc(NS(=O)(=O)c3cccc(F)c3)ccc2OC[C@@H]2O[C@@H](CC(=O)N3CCc4ccccc4C3)CC[C@H]21	-6	-3	-2.6
N#C[C@H]1[C@@H](c2ccc(-c3ccncc3)cc2)[C@@H](CO)N1C(=O)C1CCC1	0	4	-4.0
Cc1cc(C(=O)Nc2ccc3c(c2)C(=O)N(C)[C@@H]2CC[C@@H](CC(=O)N[C@H](C)c4ccccc4)O[C@@H]2CO3)no1	0	2	-1.5
CCCN(C)C[C@H]1Oc2cc(C#CC3(O)CCCC3)ccc2S(=O)(=O)N([C@H](C)CO)C[C@H]1C	0	-4	3.7
COc1ccccc1-c1cccc(-c2nc(C(=O)Nc3nccs3)cc3c2[C@@H](CCO)N(C(C)=O)C3)c1	2	2	-0.6
C/C=C/c1ccc([C@H]2[C@@H](CO)N(C(C)=O)[C@H]2CN(C(C)=O)C2CCCC2)cc1	0	-2	1.9
COCC(=O)N(C)C[C@@H]1Oc2cc(C#CCC3CCCC3)ccc2S(=O)(=O)N([C@@H](C)CO)C[C@@H]1C	-2	1	-2.9
CCCC(=O)Nc1ccc2c(c1)C(=O)N(C)[C@@H]1CC[C@@H](CC(=O)NCc3cccc(F)c3)O[C@@H]1CO2	-6	-7	0.8
COCC(=O)Nc1ccc2c(c1)C(=O)N(C)[C@@H]1CC[C@H](CC(=O)NCCCN(C)C)O[C@@H]1CO2	0	-5	4.4
Cc1noc(C)c1S(=O)(=O)N(C)C[C@@H]1OCCCC[C@H](C)Oc2ccc(NC(=O)CCC(F)(F)F)cc2C(=O)N([C@H](C)CO)C[C@H]1C	1	-4	4.9
COCCNC(=O)C[C@H]1CC[C@H]2[C@@H](COC[C@H](O)CN2Cc2cccc(-c3ccncc3)c2)O1	-2	-2	0.7
CCCN1C[C@@H](C)[C@@H](OC)CN(C)C(=O)c2cc(NS(=O)(=O)c3ccccc3)ccc2OC[C@@H]1C	1	0	1.7
O=C(C[C@H]1CC[C@H]2[C@@H](COC[C@@H](O)CN2C(=O)c2ccncc2)O1)NCc1ccc(-c2ccccc2)cc1	6	-3	9.3
COc1ccccc1NC(=O)N1CC(=O)N2[C@H](C1)[C@H](c1ccc(-c3ccc(F)cc3)cc1)[C@@H]2CO	-2	-6	4.3
O=C(Nc1cccc(Cl)c1)N[C@@H]1CC[C@H](CCn2cc(Cc3ccccc3)nn2)O[C@H]1CO	?	/	/
CCNC(=O)C[C@H]1CC[C@H]2[C@H](COc3ccc(NC(=O)c4ccc(F)c(F)c4)cc3C(=O)N2C)O1	2	9	-7.9
O=C(C[C@H]1C[C@@H]2c3cc(NC(=O)NC4CCCCC4)ccc3O[C@@H]2[C@@H](CO)O1)NCC(F)(F)F	-2	1	-2.4

Rewritten bar-delimited: entries from further up.
compound | DUX4 inh | DUX4 inh difference | DUX4 inh control
Cc1cc(C(=O)Nc2ccc3c(c2)C(=O)N(C)[C@@H]2CC[C@@H](CC(=O)N[C@H](C)c4ccccc4)O[C@@H]2CO3)no1 | 0 | 2 | -1.5
CCCN(C)C[C@H]1Oc2cc(C#CC3(O)CCCC3)ccc2S(=O)(=O)N([C@H](C)CO)C[C@H]1C | 0 | -4 | 3.7
COc1ccccc1-c1cccc(-c2nc(C(=O)Nc3nccs3)cc3c2[C@@H](CCO)N(C(C)=O)C3)c1 | 2 | 2 | -0.6
C/C=C/c1ccc([C@H]2[C@@H](CO)N(C(C)=O)[C@H]2CN(C(C)=O)C2CCCC2)cc1 | 0 | -2 | 1.9

Following part:
SMILES	DUX4 inh	DUX4 inh difference	DUX4 inh control
CCS(=O)(=O)N[C@@H]1CC[C@H](CC(=O)NCc2ccc(Cl)cc2)O[C@@H]1CO	1	0	0.8
CCCNC(=O)Nc1ccc2c(c1)OC[C@@H](C)N(S(C)(=O)=O)C[C@H](C)[C@@H](OC)CN(C)C2=O	2	-1	2.7
COc1cccc(-c2ccc([C@H]3[C@@H](CO)N4C(=O)CN(C(=O)C5CCOCC5)C[C@H]34)cc2)c1	4	-6	10
O=C(C1CCOCC1)N1CC2(C1)[C@@H](c1ccccc1)[C@@H](CO)N2Cc1ccc(Cl)cc1	4	5	-0.8
O=C(C[C@@H]1CC[C@H]2[C@@H](COC[C@@H](O)CN2Cc2ccccc2)O1)NCc1ccccc1Cl	-7	-3	-4.5
O=C(NC1CCC1)[C@@H]1[C@@H](CO)[C@@H]2Cn3c(ccc(/C=C/c4ccccc4)c3=O)[C@@H]2N1Cc1cncnc1	-3	-1	-1.5
CN(C)CCCNC(=O)[C@@H]1[C@@H](CO)[C@@H]2Cn3c(cccc3=O)[C@@H]2N1C(=O)Nc1ccccc1	-4	-2	-2.3
C[C@@H]1CN([C@@H](C)CO)C(=O)c2cc(N(C)C)ccc2O[C@@H](C)CCCCO[C@H]1CN(C)S(=O)(=O)c1ccc(F)cc1	4	6	-2.1
COc1ccccc1C#Cc1ccc2c(c1)O[C@H](CN(C)Cc1ccncc1)[C@H](C)CN([C@@H](C)CO)S2(=O)=O	1	0	1.5
COc1ccc2c3c([nH]c2c1)[C@@H](CO)N(S(=O)(=O)c1ccc(C)cc1)CC31CCN(C(=O)Cc2cccnc2)CC1	?	/	/
Cc1ccc(S(=O)(=O)Nc2ccc3c(c2)C(=O)N([C@@H](C)CO)C[C@@H](C)[C@H](CN(C)S(=O)(=O)c2cccs2)OCCCC[C@H](C)O3)cc1	2	6	-3.6
C[C@@H]1CN([C@@H](C)CO)C(=O)CCCn2nncc2CO[C@@H]1CN(C)Cc1cccc(C(=O)O)c1	6	-4	9.3
CC(C)NC(=O)N1CC2(C1)[C@H](c1ccccc1)[C@H](CO)N2C(=O)C1CCCCC1	8	7	1.4
CCS(=O)(=O)Nc1ccc2c(c1)C(=O)N(C)[C@H]1CC[C@@H](CC(=O)NCCOC)O[C@@H]1CO2	-3	-6	2.4
COCC(=O)N1CC2(C1)[C@@H](c1ccc(-c3ccc(F)cc3)cc1)[C@H](CO)N2C(C)=O	6	3	3.2
CN1c2ccc(-c3cccc(C#N)c3)cc2[C@H]2[C@H](CCN2S(=O)(=O)c2ccccc2)[C@H]1CO	?	/	/
O=C1N[C@H](c2ccccc2)COCc2cn(nn2)CC[C@H]1Cc1cccc(Cl)c1	-4	0	-4.2
N#C[C@@H]1[C@H](c2ccc(C3=CCCC3)cc2)[C@H](CO)N1C(=O)NC1CCCCC1	6	3	2.4
C[C@H](CO)N1C[C@H](C)[C@@H](CN(C)C(=O)NC2CCCCC2)OCc2ccccc2-c2ccccc2C1=O	-9	-13	4.3
CC(C)NC(=O)N1C[C@@H]2[C@H](c3ccccc31)[C@@H](CO)N2C(=O)c1ccncc1	1	-1	2.0
CCCNC(=O)Nc1ccc2c(c1)C(=O)N(C)[C@@H]1CC[C@@H](CC(=O)NC)O[C@H]1CO2	5	-3	8.0
C/C=C/c1ccc2c(c1)O[C@H](CN(C)C(=O)c1ccccn1)[C@H](C)CN([C@H](C)CO)S2(=O)=O	2	3	-0.4
CN1C(=O)c2cc(NC(=O)c3ccccc3Cl)ccc2OC[C@@H]2O[C@H](CC(=O)NCC(F)(F)F)CC[C@H]21	-1	-2	1.6
O=C(c1cccc(F)c1)N1CC2(C1)[C@H](c1ccccc1)[C@@H](CO)N2C(=O)C1CCCCC1	-1	-1	0.5
O=S(=O)(c1ccccc1)N1CCCCN2[C@H](CO)[C@H](c3ccc(-c4ccccc4)cc3)[C@H]2C1	?	/	/
C[C@H]1CN([C@@H](C)CO)C(=O)Cc2cc(NC(=O)NC3CCCCC3)ccc2O[C@H]1CN(C)C(=O)Nc1ccc(C(F)(F)F)cc1	0	-2	1.2
CN1C(=O)c2cc(NS(=O)(=O)c3cccc(F)c3)ccc2OC[C@H]2O[C@@H](CC(=O)N3CCc4ccccc4C3)CC[C@H]21	-1	2	-2.9
O=C(C1CC1)N1CC2(C1)[C@@H](c1ccccc1)[C@@H](CO)N2CCC(F)(F)F	6	4	2.0
O=C(c1ccncc1)N1C[C@H]2[C@@H](c3ccccc31)[C@H](CO)N2C(=O)Nc1ccccc1Cl	2	-2	3.5
O=C(C[C@H]1CC[C@@H](NC(=O)Nc2cc(F)ccc2F)[C@H](CO)O1)NCc1ccncn1	4	7	-3.1
C[C@@H]1CN([C@@H](C)CO)S(=O)(=O)c2ccc(C#Cc3cccnc3)cc2O[C@@H]1CN(C)C(=O)Nc1ccc2c(c1)OCO2	-9	-3	-5.6
O=C(C[C@H]1CC[C@@H]2[C@H](COC[C@H](O)CN2S(=O)(=O)c2ccccc2)O1)N1CCc2ccccc2C1	0	-5	5.4
CN(C)C(=O)c1cccc(-c2ccccc2[C@H]2[C@@H](C#N)N(C(=O)C3CC3)[C@H]2CO)c1	12	8	3.5
COc1cccc(NC(=O)N(C)C[C@@H]2OCc3ccccc3-c3c(n(C)c4ccccc34)C(=O)N([C@@H](C)CO)C[C@H]2C)c1	-4	-4	0.4
COc1ccc(NC(=O)N(C)C[C@@H]2Oc3ccc(NC(=O)Nc4cccc5ccccc45)cc3CC(=O)N([C@H](C)CO)C[C@H]2C)cc1	-2	-1	-1.3
CN1[C@@H]2c3ccc(C4=CCCCC4)c(=O)n3C[C@H]1[C@H](CO)[C@H]2C(=O)NCCc1ccccc1	10	9	0.7
O=C(Nc1ccc(F)cc1)N1CC(=O)N2[C@H](C1)[C@H](c1ccc(C#Cc3ccccc3)cc1)[C@@H]2CO	?	/	/
CC=Cc1ccc2n(c1=O)C[C@H]1[C@H](CO)[C@@H](C(=O)NCC)[C@@H]2N1C(=O)C1CC1 (mixture of isomers)	3	0	2.4
COc1ccc(S(=O)(=O)N(C)C[C@@H]2Oc3ccc(N(C)C)cc3CC(=O)N([C@H](C)CO)C[C@@H]2C)cc1	2	1	1.4
CCCNC(=O)N1CC2(CN(C)C2)c2c([nH]c3cc(OC)ccc23)[C@H]1CO	9	15	-6.8

Reformatted as comma-separated lines: 3 of the compounds above
smiles,DUX4 inh,DUX4 inh difference,DUX4 inh control
C[C@@H]1CN([C@@H](C)CO)S(=O)(=O)c2ccc(C#Cc3cccnc3)cc2O[C@@H]1CN(C)C(=O)Nc1ccc2c(c1)OCO2,-9,-3,-5.6
O=C(C[C@H]1CC[C@@H]2[C@H](COC[C@H](O)CN2S(=O)(=O)c2ccccc2)O1)N1CCc2ccccc2C1,0,-5,5.4
CN(C)C(=O)c1cccc(-c2ccccc2[C@H]2[C@@H](C#N)N(C(=O)C3CC3)[C@H]2CO)c1,12,8,3.5

Quoted from the listing:
Result of O=C(c1cccc(F)c1)N1CC2(C1)[C@H](c1ccccc1)[C@@H](CO)N2C(=O)C1CCCCC1 under DUX4 inh difference: -1
Result of O=C(C[C@H]1CC[C@@H](NC(=O)Nc2cc(F)ccc2F)[C@H](CO)O1)NCc1ccncn1 under DUX4 inh control: -3.1
Result of CCCNC(=O)N1CC2(CN(C)C2)c2c([nH]c3cc(OC)ccc23)[C@H]1CO under DUX4 inh difference: 15
Result of O=C(C1CC1)N1CC2(C1)[C@@H](c1ccccc1)[C@@H](CO)N2CCC(F)(F)F under DUX4 inh: 6
Result of C[C@@H]1CN([C@@H](C)CO)S(=O)(=O)c2ccc(C#Cc3cccnc3)cc2O[C@@H]1CN(C)C(=O)Nc1ccc2c(c1)OCO2 under DUX4 inh: -9
Result of CC=Cc1ccc2n(c1=O)C[C@H]1[C@H](CO)[C@@H](C(=O)NCC)[C@@H]2N1C(=O)C1CC1 (mixture of isomers) under DUX4 inh: 3

(cont.)
SMILES	DUX4 inh	DUX4 inh difference	DUX4 inh control
CCS(=O)(=O)N1[C@H](C#N)[C@@H](c2ccc(C#Cc3ccccc3F)cc2)[C@H]1CO	-3	-2	-0.9
O=C(Cc1ccccc1)N1C[C@@H]2[C@H](c3ccccc31)[C@@H](CO)N2S(=O)(=O)c1ccccc1	-1	-2	1.4
COc1ccc2c3c([nH]c2c1)[C@H](CO)N(C(=O)C1CCC1)CC31CN(Cc2cccc(F)c2)C1	?	/	/
CCc1csc(N2[C@H](C#N)[C@H](c3ccc(-c4cccc(F)c4)cc3)[C@@H]2CO)n1	5	6	-1.7
O=C(c1ccc(F)cc1)N1CC[C@@H]2[C@@H](CO)Nc3ccc(C#Cc4ccccc4F)cc3[C@@H]21	?	/	/
C[C@@H](NC(=O)[C@H]1[C@H](CO)[C@H]2Cn3c(cccc3=O)[C@H]2N1CCC(F)(F)F)c1ccccc1	0	-2	1.4
COc1cccc(NC(=O)N(C)C[C@H]2OCc3ccccc3-c3c(n(C)c4ccccc34)C(=O)N([C@H](C)CO)C[C@H]2C)c1	-2	4	-5.8
C[C@H](NC(=O)C[C@@H]1CC[C@H]2[C@@H](COC[C@@H](O)CN2C(=O)Nc2cccc(F)c2)O1)c1ccccc1	9	6	2.8
CN(C)c1ccc2c(c1)[C@@H]1C[C@H](CC(=O)NCC3CC3)O[C@H](CO)[C@@H]1O2	6	7	-1.0
CCS(=O)(=O)N[C@H]1C=C[C@@H](CC(=O)O)O[C@@H]1CO	5	1	3.7
COCC(=O)Nc1ccc2c(c1)C(=O)N(C)C[C@@H](OC)[C@@H](C)CN(CC1CCCCC1)[C@@H](C)CO2	3	-3	6.4
Cc1noc(C)c1S(=O)(=O)Nc1ccc2c(c1)C(=O)N([C@@H](C)CO)C[C@H](C)[C@H](CN(C)C(=O)c1ccncc1)OCCCC[C@H](C)O2	3	3	0.4
CCN(C[C@@H]1[C@@H](c2ccccc2)[C@H](CO)N1Cc1cccnc1)C(C)=O	2	0	1.6
CCS(=O)(=O)N1CC(=O)N2[C@H](C1)[C@@H](c1ccc(C#CC3CCCCC3)cc1)[C@@H]2CO	5	0	4.8

Some of the compounds tested. The share of hits here may be higher or lower than overall.
